# CSC inhib = cancer stem cell inhibition; AID 2717; 300,000 tested, 1.1% active; inhibition, % at 7.5 µM; cancer stem cell-like cells viability, luminescence;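 active = mean at 75% or more and at least half the replicates too; inconclusive = mean and replicates disagree; tested in HMLE shEcad cells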;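 also: 0% = median of negative and 100% = median of positive control wells; the first replicate is given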
# eIF4H inh = inhibitors of RNA binding by human eIF4H. inhibition, % at 35 µM. 290,000 tested, 0.94% active. eIF4H fluorescence polarization binding assay. Q15056;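 active = 50% or more with normal probe brightness, or confirmed in later tests; inconclusive = above 50% with abnormal brightness, or retests that disagree; inactive = below 50% or failed in later tests; about a fifth of its hits are not listed in these tables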;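 also: calls also rest on retests at 20 µM and on dose response follow-up; 0% = protein and probe with vehicle and 100% = probe without protein; strong numbers were not always called active; many hits fall short of the cut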
# Rce1 inhib = blocks yeast Ras-converting enzyme; Q03530; yeast membranes, quenched prenylated peptide cleavage fluorescence; calls only; 290,000 tested, 0.27% active; AID 2563;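 active = fall in fluorescence gain of 50% or more versus controls, with final raw signal at or below 3038400; inconclusive = same 50% fall but final raw signal above 3038400; inactive = fall in fluorescence gain under 50%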;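 also: plate controls were neutral control wells for no effect and wells lacking membranes for full effect; tested at 10 µM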
# Target sequence (Q03530 whole entry, looked up): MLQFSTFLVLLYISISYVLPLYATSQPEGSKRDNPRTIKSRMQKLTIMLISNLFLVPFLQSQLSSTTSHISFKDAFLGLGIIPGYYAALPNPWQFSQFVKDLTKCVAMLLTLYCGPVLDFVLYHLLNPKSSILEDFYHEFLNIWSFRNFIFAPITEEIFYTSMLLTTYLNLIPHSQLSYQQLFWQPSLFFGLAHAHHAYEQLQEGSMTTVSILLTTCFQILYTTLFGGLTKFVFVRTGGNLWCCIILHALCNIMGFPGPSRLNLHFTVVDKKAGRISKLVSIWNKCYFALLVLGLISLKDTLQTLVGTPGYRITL
# UUG fidelity = alters start codon recognition fidelity in yeast | AID 602363 | activity score, % at 18.7 µM | S. cerevisiae UUG-firefly luciferase reporter, luminescence/redox ratio | 350,000 tested, 0.13% active;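 active = replicate mean at a twofold rise or more, about +100% in these data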;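 also: firefly luciferase made from a UUG start codon reports start codon fidelity; reporter light over untreated wells divided by growth signal over untreated wells; some hits fall short of that in this replicate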
# HIV Env fusion = inhibitors of HIV Env-mediated cell fusion. HeLa-JRFL Env/CEM21 cell fusion, luciferase. inhibition, % at 12.3 µM. 360,000 tested, 1.1% active. AID 651610;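 active = mean replicate inhibition score of at least 50 and every replicate individually at or above 50; inconclusive = only one of the two criteria met; inactive = mean below 50 and not all replicates reaching 50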;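 also: 0% = plate neutral controls and 100% = maraviroc near 300 nM; one replicate is shown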
# PABP FP inh = blocks human PABP binding to poly(A) RNA. P11940. fluorescence polarization. inhibition, % at 35 µM. 290,000 tested, 1% active. AID 2014;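 active = 50% or more with normal probe brightness, or confirmed in later tests; inconclusive = above 50% with abnormal brightness, or retests that disagree; inactive = below 50% or failed in later tests; about a fifth of its hits are not listed in these tables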;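 also: calls also rest on retests at 20 µM and on dose response follow-up; controls were probe without protein and protein plus probe with vehicle; some compounds called inactive have numbers as strong as hits; many hits fall short of the cut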
# MT1-MMP act inh = MT1-MMP (human) activation inhibition; P50281; HT1080 RFP-PRO-GFP cells, GFP/RFP ratio fluorescence, overnight; percent of plate control window, DMSO zero; GFP/RFP ratio change, % at 20 µM; 360,000 tested, 0.061% active;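 active = GFP/RFP ratio change of at least 30% with cell ATP level not reduced by more than half and red fluorescence within 50% of control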; also: strong numbers were not always called active
#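 Read-out: GFP/RFP fluorescence ratio; Test system: RFP-PRO-GFP reporter HT1080 cells; Compound dosing: single-point 20 µM compound, 1% DMSO; Times: overnight compound exposure at 37 °C.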
# eIF4H inh retest = further read-out of eIF4H inh, marked with its call; inhibition, %; compound at 20 µM; confirmation average;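 mean of two retest wells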
# PABP FP inh retest = recorded beside PABP FP inh, whose call it bears; inhibition, %; compound at 20 µM; confirmation repeats;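 mean of two retest wells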
# MT1-MMP act inh RFP = recorded beside MT1-MMP act inh, whose call it bears; RFP signal change, %; measured here: RFP expression control read;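 0 = vehicle wells; hits needed this value within 50% of zero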
# Active calls of the source: *; i = inactive; ? = inconclusive; nt = no result given; & = joins results of further samples; [ ] = remark or other dose. The list is partial (hit frequency here may not be typical).
SMILES,CSC inhib,eIF4H inh,Rce1 inhib,UUG fidelity,HIV Env fusion,PABP FP inh,MT1-MMP act inh,MT1-MMP act inh RFP,others
CC(C)c1ccc(NC(=O)C(c2ccccc2)N2CC(=O)Nc3ccccc32)cc1 (stereo unspecified),5,-5,i,-22,-15,10,-8,-3,
COc1ccc(-c2nn(-c3ccccc3)cc2C(N)=O)cc1OC,-2,-9,nt,-16,-2,-13,1,0,
COc1ccc(C2/C=C\CN(C(=O)Oc3ccccc3)CC(=O)N2Cc2ccc(F)cc2)cc1 (stereo unspecified),nt,0,i,-29,-34,-6,-4,-1,
COc1cccc(-c2ccc(SCC(=O)NC3CCCCC3)nn2)c1,-5,-8,i,4,2,-1,-1,-1,
COc1ccc(CCNC(=O)C2CCN(S(=O)(=O)c3cccc4cccnc34)CC2)cc1OC,10,15,i,-26,nt,14,-3,-4,
CCCCN1C(=O)N(C)C2C1N(C)C(=O)N2CCCC (stereo unspecified),8,0,i,-6,-12,7,3,9,
Cc1ccc(S(=O)(=O)Nc2ccc3c(c2)C(=O)N([C@@H](C)CO)C[C@@H](C)[C@@H](CN(C)C(=O)NC2CCCCC2)OCCCC[C@H](C)O3)cc1,nt,nt,nt,12&17,-39[16.7 µM],nt,0,-2,
CCC1=Nc2cc(C(=O)NCCCN3CCOCC3)ccc2Sc2ccc(Br)cc21,71,-12,i,-12,5,-3,2,0,
COc1ccccc1C(=O)COC(=O)Cc1c[nH]c2ccccc12,4,nt,i,5,nt,nt,-2,4,
COCCCn1c(SCC(=O)Nc2oc(C)c3c(C)n[nH]c(=O)c23)nc2ccccc2c1=O,-7,nt,i,nt,0,nt,3,3,
CCOc1ccc(CNC(=O)Cn2ccc3cc(S(=O)(=O)N4CCCCCC4)ccc32)cc1,10,-10,i,-4,12,-6,1,-5,
CCCCN(C(=O)/C=C/c1ccc(OCC(C)C)c(OCC)c1)c1c(N)n(CCC)c(=O)[nH]c1=O,4,-10,i,nt,5,-8,-6,-1,
O=C(COc1cc(Cl)ccc1Cl)Nc1ccc2[nH]c(=O)[nH]c2c1,-5,nt,i,-13,-108,nt,1,-2,
Cc1ccc(C)c(-c2csc(NC(=O)c3cnccn3)n2)c1,14,-10,i,nt,-18,-18,9,-4,
O=c1c2cc(Br)ccc2nc(-c2ccc([N+](=O)[O-])cc2)n1O,-2,-4,nt,nt,5,6,2,-1,
Cc1cccc(OCC(=O)Nc2cccc(C(=O)Nc3ccccc3C(=O)O)c2)c1,7,-9,i,nt,3,-11,3,2,
COc1ccc(CCNC2CC(=O)N(CCc3ccccc3)C2=O)cc1OC (stereo unspecified),-18,5,i,-9,-1,-6,4,3,
CCc1cccc(CC)c1NC(=O)c1cccc(S(=O)(=O)N2CCN(C)CC2)c1,4,7,i,-15,-8,14,-3,-1,
CCOC(=O)c1c(-c2ccc(C)s2)csc1N,11,6,i,nt,-2,-22,1,7,
CCOC(=O)N1CCN(c2cccc(C)c2C)CC1,-5,-8,i,-2,nt,2,-3,-1,
Cc1cc(=O)c(C(=O)O)nn1-c1ccccc1[N+](=O)[O-],-5,17,i,2,-5,5,nt,nt,
Cc1ccc(NC(=O)C2CC(=O)n3c(nc4ccccc43)N2)cc1Cl (stereo unspecified),3,1,i,-15,-7,-1,8,2,
CC(C)CNS(=O)(=O)c1cc(C(=O)O)c(Cl)cc1Cl,0,0,i,nt,1,7,-1,2,
C[C@@H](NC(=O)c1coc(=O)c(Br)c1)c1ccccc1,7,-1,i,-7,nt,7,2,6,
Cc1ccc(C(=O)NC(C)C2CCCO2)o1 (stereo unspecified),-1,2,i,-7,7,12,-3,2,
CCn1cc(C(=O)NC2CCCC2)c(=O)c2cc(S(=O)(=O)N3CCOCC3)ccc21,nt,nt,nt,-7,10,nt,-8,-4,
COC(=O)c1ccc(C(=O)OC)c(NC(=O)CSCC(=O)O)c1,-8,5,i,-14,-6,-5,0,2,
CCCCOc1[nH]c2nc(-c3ccco3)n(Cc3ccco3)c(=N)c2c1C#N,-1,127*,i,nt,nt,118*,-62,11,eIF4H inh retest=102*;PABP FP inh retest=71*
Cc1ccc(-c2cc(C(=O)NCCCN3CCOCC3)c3ccccc3n2)cc1C,nt,6,i,-6,-2,0,1,1,
C(#CCN1CCOCC1)COCCCOC(c1ccccc1)c1ccccc1,2,-1,i,7,nt,-2,0,-4,
O=C(CSCc1nc2ccccc2[nH]1)Nc1ccccc1,-7,-7,i,-8,-16,-10,3,-1,
COc1ccccc1N1CCN(C2CCCN(C(=O)CN3CCCC3=O)C2)CC1 (stereo unspecified),-2,-10,i,-20,-4,-3,-1,2,
COc1cccc(OCC(=O)Nc2c3c(nn2-c2ccc(F)cc2)CS(=O)(=O)C3)c1,nt,30,i,16,5,-2,-1,0,
O=C(NCCS(=O)(=O)NCc1ccc(F)cc1)c1ccc2c(c1)OCO2,nt,nt,i,-14,6,nt,2,4,
CC(C)C(=O)Nc1cccc(NC(=O)CCN2C(=O)c3ccccc3S2(=O)=O)c1,4,-12,i,-6,nt,-14,nt,nt,
CCN(CC)CCOC(=O)c1ccc(N/C=C(/C#N)c2nc(-c3cccc(OC)c3)cs2)cc1,15,-46,i,-10,-5,-50,0,2,
Cc1c(CN(C)C(=O)c2ccc(Br)o2)cnn1C,-6,-4,i,-13,-27,0,-2,2,
CCOc1ccc2nc(N/C(N)=N/C(=S)Nc3cccc(C)c3)nc(C)c2c1,8,1,i,-35,nt,-9,-9,-10,
CCOC(=O)Cc1csc(NC(=O)CSc2nnnn2-c2ccc(CC)cc2)n1,nt,-2,i,-12,nt,-7,1,4,
O=C(O)CCN1C(=O)/C(=C\c2cccc(Oc3ccccc3)c2)SC1=S,nt,1,i,-9,8,4,-1,-1,
CC(O)c1nc2ccccc2n1C1CCCCC1 (stereo unspecified),-13,-4,i,-28,nt,8,-4,-3,
Cn1c(SCCN2CCCC2)nnc1C1CCN(S(=O)(=O)c2cccc(F)c2)CC1,16,-4,i,-13,5,1,1,0,
COCCCNC(=O)c1c[nH]c2ccc(S(=O)(=O)N3CCc4ccccc43)cc2c1=O,14,-4,i,nt,31,0,-10,-21,
CCn1nnnc1NCc1ccc(Cl)cc1,-2,4,i,-7,-4,8,-1,1,
CCc1cccc(C)c1NC(=O)Cn1nc(C)n2cccc2c1=O,7,-4,i,-12,4,3,-1,0,
CC1=CC(=O)N(c2cccc(C(F)(F)F)c2)C1c1ccc(Cl)cc1 (stereo unspecified),-13,6,i,-7,66*,18,-16,-6,
CCN(CC)c1ccc(NC(=S)NC(=O)C2CCC2)cc1,-1,-10,i,-20,-247,-3,-3,-1,
Cc1ccccc1C(=O)c1cccn1CC(=O)NC1CCCC(C)C1C (stereo unspecified),11,9,i,-22,12,-4,-3,-2,
NS(=O)(=O)c1ccc(NC(=O)COC(=O)C2CCCCC2)cc1,-1,33,i,nt,-40,24,nt,nt,
Brc1ccc(Sc2cnc3ccccc3n2)cc1,-9,-3,i,-12,nt,-4,-2,-2,
Cc1ncn(-c2ccccc2)c1-c1ccccc1,12,nt,i,-4,-2,nt,7,-4,
CCc1ccc(C(=O)N2CCCC2)s1,-9,-5,i,nt,nt,16,4,4,
COc1ccccc1N1CCN(C(=O)c2cccc3c(=O)c(C)c(-c4ccccc4)oc23)CC1,23,-5,i,nt,-13,-18,-1,-5,
CCOc1cccc(C(=O)Nc2ccc3ccccc3c2)c1,33,-13,i,-39,-299,-2,0,-8,
CCN(CC)c1ccc2c(Cl)c(Br)c(=O)oc2c1,?,2,i,nt,nt,-3,-167,18,
CC(=O)Nc1cccc(-n2c(=O)n(Cc3ccccc3)c(=O)c3[nH]cnc32)c1,-6,-4,i,-9,-50,-6,-7,0,
CC1(C)CC(=O)N(c2ccc(Cl)cc2Cl)C(=O)C1,11,3,i,-8,-7,2,4,2,
COc1ccc(NC(=O)c2ccc(NC(=O)CN(C)CC(=O)Nc3c(C)cccc3C)cc2)cc1,-12,10,i,nt,7,-2,0,-4,
Cc1ccc(S(=O)(=O)N2C[C@@H](C)[C@]3(C2)[C@H](O)[C@H](OC(=O)Nc2cccs2)C[C@H]2C(=O)N(c4ccccc4)C(=O)[C@H]23)cc1,nt,nt,nt,-12,-16,nt,-7,-5,
Cc1csc(NC(C)c2nc3cc(Cl)c(N4CCCCC4)cc3n2CCOCCO)n1 (stereo unspecified),-8,nt,i,-17,3,nt,3,-2,

# Next section.
SMILES,CSC inhib,eIF4H inh,Rce1 inhib,UUG fidelity,HIV Env fusion,PABP FP inh,MT1-MMP act inh,MT1-MMP act inh RFP,others
COC(=O)c1ccc(COc2cccc3c2CCN(Cc2cccc(C)c2)C3=O)o1,-6,3,i,nt,9,-7,-7,-21,
Cc1ccc(/C=N\NC(=O)c2cc([N+](=O)[O-])cc([N+](=O)[O-])c2)o1,-9,-10,i,-6,15,1,6,3,
COc1ccc(CC(=O)Nc2c3c(nn2-c2cccc(C)c2C)CS(=O)(=O)C3)cc1,-9,-4,i,nt,6,-9,-2,2,
O=C1CC[C@@H](C(=O)N2CSC[C@H]2C(=O)O)N1,-9,-5,i,-14,-12,3,-1,3,
O=c1[nH][nH]c(-c2ccccc2O)c1C(C[N+](=O)[O-])c1ccc(Br)cc1 (stereo unspecified),59,9,i,-9,-6,2,-5,-2,
C=CCNC(=S)Nc1cccc(NC(=S)NCC=C)c1,3,0,i,nt,3,-12,-1,-2,
COc1ccc(-n2cnnc2SCC(=O)Nc2ccc(C(N)=O)cc2)cc1,-14,-14,i,-27,11,-3,5,5,
COc1ccc(NS(=O)(=O)c2cccc(C(=O)N(C)Cc3cccs3)c2)cc1,-3,nt,i,7,nt,nt,-2,-5,
Cc1ccccc1OCC(=O)Nc1nnc(C2CCCCC2)s1,-4,1,i,-21,-35,3,-1,-5,
COc1ccc(OC)c(/C=C/C(=O)OCC(=O)NCc2ccccc2)c1,-4,nt,nt,nt,-10,nt,-2,1,
O=[N+]([O-])c1ccc(N/N=C/c2cn(Cc3ccc(F)cc3)c3ccccc23)nc1,47,0,i,nt,-7,-5,-14,-1,
C/C(=N\O)c1ccco1,14,nt,nt,-11,-7,nt,-2,0,
COc1cccc(C#Cc2c(CO)[nH]c3ccccc23)c1,2,nt,nt,-12,-1,nt,-6,2,
O=C(NCC1CCCCC1)c1ccc(F)c(S(=O)(=O)N2CCOCC2)c1,-19,nt,nt,-15,nt,nt,5,1,
Cc1ccc2cc(C(c3nnnn3C3CCCC3)N3CCN(c4ccccc4)CC3)c(=O)[nH]c2c1 (stereo unspecified),-1,1,i,-12,-20,29,-2,-2,
Cc1nc2c(-c3ccc(F)cc3)c(C)nn2c(C)c1CCC(=O)NCc1ccco1,-4,-3,i,-9,-2,-12,7,-4,
O=S(=O)(Nc1ccon1)c1ccc(Br)cc1,-11,0,i,-9,-24,1,1,9,
COc1ccc(/C=C(/C#N)c2cccnc2)cc1OC,-14,8,i,-4,-31,-6,3,1,
C=CCNC(=O)C1CCN(S(=O)(=O)c2ccc(Br)cc2)CC1,nt,-4,i,-9,nt,-7,-3,-2,
O=C1CC2(CCN(S(=O)(=O)c3ccccc3F)CC2)Oc2ccccc21,-11,nt,i,-5,-7,nt,-1,-2,
Cc1ccc(C(=O)OCC(=O)Nc2ncc(Cl)cc2Cl)cc1NC(=O)c1ccco1,-9,28,i,36,nt,22,-2,1,
CCN(CC)S(=O)(=O)c1cccc(NC(=O)CNc2cccc(S(=O)(=O)N3CCCC3)c2)c1,13,-9,i,-24,nt,0,2,-31,

# Assay outcomes (PubChem)
